# Screens deposited in PubChem by National Center for Advancing Translational Sciences (NCATS).
# EPAC1 agonist – Validation qHTS for agonist of cAMP-regulated guanine nucleotide exchange factor 3 (EPAC1). AID 1645883, 2021. 16,000 compounds, 1% hits. EPAC1 Rap1b BODIPY-GDP exchange, fluorescence. Potency, µM, without a hit: max response, positive = active, actives largely listed as activators; active means well fitted activation curve with a large enough effect; inconclusive means small, poorly fitted or top-dose-only effect; inactive means no such curve, though single readings can be large or run the other way;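 further: nearly all actives have a fitted effect of over 70% in size; series mostly up to about 76 or 150 µM; scaled to a cAMP control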
# Target sequence (O95398 whole entry, looked up): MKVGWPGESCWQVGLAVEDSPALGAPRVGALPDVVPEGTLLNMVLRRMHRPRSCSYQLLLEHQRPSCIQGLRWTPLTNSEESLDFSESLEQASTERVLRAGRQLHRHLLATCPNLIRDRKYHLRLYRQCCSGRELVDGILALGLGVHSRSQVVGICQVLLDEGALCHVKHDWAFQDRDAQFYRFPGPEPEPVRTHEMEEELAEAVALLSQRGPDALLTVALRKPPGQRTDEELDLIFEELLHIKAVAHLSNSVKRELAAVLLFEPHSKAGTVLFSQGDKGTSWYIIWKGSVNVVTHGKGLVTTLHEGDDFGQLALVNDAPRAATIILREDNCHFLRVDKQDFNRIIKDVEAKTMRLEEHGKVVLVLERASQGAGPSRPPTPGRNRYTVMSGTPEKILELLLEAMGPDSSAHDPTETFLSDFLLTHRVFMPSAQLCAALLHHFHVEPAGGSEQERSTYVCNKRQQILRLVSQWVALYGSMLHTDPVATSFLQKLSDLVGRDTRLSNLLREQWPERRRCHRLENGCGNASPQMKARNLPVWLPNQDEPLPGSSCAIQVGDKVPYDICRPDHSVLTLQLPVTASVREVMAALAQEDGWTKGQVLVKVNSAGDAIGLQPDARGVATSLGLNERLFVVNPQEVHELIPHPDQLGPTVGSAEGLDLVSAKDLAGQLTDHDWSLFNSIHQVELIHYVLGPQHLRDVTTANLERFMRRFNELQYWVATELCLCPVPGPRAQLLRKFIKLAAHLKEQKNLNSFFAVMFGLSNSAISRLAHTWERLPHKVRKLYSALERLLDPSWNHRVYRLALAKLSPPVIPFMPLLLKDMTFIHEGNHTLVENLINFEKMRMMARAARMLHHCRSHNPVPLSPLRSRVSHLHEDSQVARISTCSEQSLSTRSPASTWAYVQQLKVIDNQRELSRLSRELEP
# Numbers without * were called inactive; ? = inconclusive; & = joins results of further samples; [ ] = dose if it differs, or a comment. On the % scale 0 is the no-effect control and ±100 the full control effect; potency means the concentration at half of the fitted maximal effect. A portion of the library, so the mix of outcomes need not match the whole.
Structure | EPAC1 agonist
CC(=O)Oc1ccc2c3c1O[C@H]1[C@@H](OC(C)=O)C=C[C@H]4[C@@H](C2)N(C)CC[C@@]341 | 3%&-12%
CC1(C)CC/C(=C/c2ccc(Cl)cc2)C1(O)Cn1cncn1 (stereo not given) | 14%
CC(C)NCC(O)c1ccccc1Cl (stereo not given) | 14%
CCC(C)C(=O)O[C@@H]1C[C@@]2(C)C(c3ccoc3)OC(=O)CC23OC2(C)O[C@@]14[C@@]1(C)C(CC(=O)OC)C5(C)CC1(O)C(O)(C5OC(=O)C1(C)OC1C)C(OC(C)=O)[C@@]34O2 (stereo not given in full) | -78%[inhibitor]
O=S(=O)(c1ccc(Cl)cc1)c1ccc(Cl)cc1 | -50%[inhibitor]
NC(CO)Cc1ccccc1 (stereo not given) | 15%
O=C1Nc2ccc(Cl)cc2C(c2ccccc2Cl)=NC1O (stereo not given) | -11%
CCNCC(O)c1cccc(O)c1 (stereo not given) | -4%
C=CCc1cc(OC)c2c(c1OC)OCO2 | -48%[inhibitor]
O=C(Nc1ccccc1)N1CC[C@@]2(CCCN(C(=O)Oc3ccccc3)C2)C1 | ?
COc1cc(C2c3cc4c(cc3C(O)C3COC(=O)C23)OCO4)cc(OC)c1O (stereo not given) | 19%
C=C1[C@@H](C)[C@H]2[C@H](Cc3ccccc3)NC(=O)[C@]23[C@H](OC(C)=O)/C=C/[C@](C)(O)C(=O)[C@@H](C)C/C=C/[C@H]3[C@@H]1O | -23%
c1ccc2c(c1)[nH]c1cnccc12 | 19%
CCC12CCCN3CCC4(c5ccc(OC)c(O)c5N(C(C)=O)C4CC1)C32 (stereo not given) | -13%
CC(C)[C@]12O[C@H]1[C@@H]1O[C@]13[C@]1(O[C@H]1C[C@H]1C4=C(CC[C@@]13C)C(=O)OC4)[C@@H]2O | -7%
COC(=O)c1cncn1C(C)c1ccccc1 (stereo not given) | -29%
CCOC(=O)[C@]12Cc3cc(N(C)C)ccc3[C@H]1N(Cc1ccccc1)C(=O)c1ccccc12 | 29%
C=CC1CN2CCC1CC2C(O)c1ccnc2ccccc12 (stereo not given) | 30%&19%
CCN(CC)Cc1nccn1-c1ccc([N+](=O)[O-])cc1C(=O)c1ccccc1Cl | 10%
CC1NCCOC1c1ccccc1 (stereo not given) | 8%
CC(C)(C)c1o[nH]c(=O)c1C[C@H](N)C(=O)O | -14%
Cc1ccc(-c2nc3ccc(C)cn3c2CC(=O)N(C)C)cc1 | -9%
CC=C(C)C(=O)O[C@H]1C(C)=C2[C@@H]3OC(=O)[C@@](C)(O)[C@@]3(O)[C@@H](OC(=O)CCC)C[C@](C)(OC(C)=O)[C@@H]2[C@@H]1OC(=O)CCCCCCC | -52%[inhibitor]
CCCN1CCC[C@@H](c2cccc(O)c2)C1 | -6%
COC(C)(C)CCCC(C)C/C=C/C(C)=C/C(=O)OC(C)C (stereo not given) | -44%&-53%[inhibitor]
CC1=CC(=O)c2c(O)cccc2C1=O | 23%&14%
C[C@H](N)Cc1cnc[nH]1 | 2%&-1%
CCCN(CCC)C1Cc2cc(OC)c(OC)cc2C1 | 3%&-15%&-6%
OCC(O)Cc1ccc2c(c1)OCO2 (stereo not given) | 5%
COc1ccc2c(c1)/C(=C/c1cnc[nH]1)C(=O)N2 | -10%

# Looked up one by one from above (2):
Structure | EPAC1 agonist
COc1ccc2c(c1)/C(=C/c1cnc[nH]1)C(=O)N2 | -10%
C[C@H](N)Cc1cnc[nH]1 | 2%&-1%

# Further compounds follow.
Structure | EPAC1 agonist
COC[C@]12CN(C=O)C3C4C(OC)C1[C@@]3(C1CC3(O)C(OC)C(O)C4(OC(C)=O)C1C3OC(=O)c1ccccc1)[C@@H](OC)CC2O (stereo not given in full) | 7%
CCCn1c(C)c(C(=O)c2cccc3ccccc23)c2ccccc21 | 2%
Cc1ccc(N=CN(C)C=Nc2ccc(C)cc2C)c(C)c1 | -17%
C/C(=C\c1csc(C)n1)[C@@H]1C[C@@H]2O[C@]2(C)CCC[C@H](C)[C@H](O)[C@@H](C)C(=O)C(C)(C)[C@@H](O)CC(=O)O1 | -25%
CN(C)Cc1c[nH]c2ccccc12 | -33%&-6%[inhibitor]
Oc1ccccc1-c1ccccc1 | -15%
CCCCCC[C@H]1C(=O)O[C@H](C)[C@H](NC(=O)c2cccc(NC=O)c2O)C(=O)O[C@@H](C)[C@@H]1OC(=O)CC(C)C | -67%[inhibitor]
CCC(=O)Nc1ccc(Cl)c(Cl)c1 | -34%[inhibitor]
C[C@@]1(CO)[C@H](O)CC[C@@]2(C)[C@H]1CC[C@H]1C[C@@H]3C[C@@]12CC[C@]3(O)CO | -62%[inhibitor]
c1ccc2sc(C3(N4CCCCC4)CCCCC3)cc2c1 | -1%&-8%&2%
CC(O)C(C)OC(=O)[C@@H]1C[C@@H]2c3cccc4c3c(cn4C(C)C)C[C@H]2N(C)C1 (stereo not given in full) | -26%
CC(C)=CCN1CC[C@@]2(C)c3cc(O)ccc3C[C@@H]1[C@@H]2C | -2%
COC[C@H]1OC(=O)c2coc3c2[C@@]1(C)C1=C(C3=O)C2CCC(=O)[C@@]2(C)C[C@H]1OC(C)=O (stereo not given in full) | 2%&-12%&-11%
Cc1cccc(C)c1NC(=O)CN1CCCC1=O | ?
C[C@@H]([C@H](O)c1ccccc1)N(C)C | -14%
CC[C@@H](C(N)=O)N1CCCC1=O | 1%
Cc1nc(-c2ccc(-c3ccc(C(=O)N4CCc5cc6c(cc54)C4(CCN(C)CC4)CO6)cc3)c(C)c2)no1 | 10%
COCCOCCO | 17%
c1cnc(N2CCC3(CCNCC3)CC2)nc1 | -12%
CNC(C)C(O)c1ccccc1 (stereo not given) | -12%
ClCCN(CCCl)c1ccc(C=Nc2ccc(/C=C/c3ccncc3)cc2)cc1 | 2%
CCOC(=O)c1cc2c(cn1)[nH]c1ccccc12 | -16%&0%
CCOCN(C(=O)CCl)c1c(C)cccc1CC | -6%
O=[N+]([O-])c1cc([N+](=O)[O-])c2ccccc2c1 | -8%
CNC(C)Cc1ccc2c(c1)OCO2 (stereo not given) | 4%
COc1cc2c(cc1-c1cc3cc4ccoc4cc3oc1=O)OCO2 | 5%
Cc1nnc2n1-c1sc(CCc3ccc(CC(C)C)cc3)cc1C(c1ccccc1Cl)=NC2C (stereo not given) | -179%[inhibitor]
N#C/C(=C\c1cccc(O)c1)C(=O)O | -9%
c1cc(N2CCCC3(CCNCC3)C2)ccn1 | -23%
CCCn1c(C)c(C(=O)c2ccc3ccccc3c2)c2ccccc21 | 10%
CC(C)(O)[C@H]1O[C@@H]2CC[C@]3(C)[C@@]4(C)c5[nH]c6ccccc6c5C[C@@H]4CC[C@]3(O)C2=CC1=O | -1%
COc1cc(C2c3cc4c(cc3C(OC(C)=O)[C@H]3COC(=O)C23)OCO4)cc(OC)c1OC (stereo not given in full) | -3%&-12%
N#Cc1ccc(CN2CCC3(CC2)CCN(C(=O)Oc2ccccc2)CC3)cc1 | -54%[inhibitor]
CC(CN)CC(=O)O (stereo not given) | -5%
CCC1(c2cnc[nH]2)Cc2ccccc2C1 | -26%&12%
ClCCN(CCCl)c1ccc(C=Nc2ccc(/C=C/c3ccnc4ccccc34)cc2)cc1 | 17%
NC(=NCCC[C@H](N)C(=O)O)N[N+](=O)[O-] | -10%&6%
CC(=O)OC1CC[C@@]2(C)C3CC[C@]4(C)C(=O)CCC4C3CC[C@H]2C1 (stereo not given in full) | 22%
CCCC(=O)OCC[N+](C)(C)C | -1%
CN1[C@@H]2CC[C@H]1CC(O[C@@H](c1ccccc1)c1ccc(Cl)cc1)C2 (stereo not given in full) | -1%
CCCCCC1C(=O)O[C@H](C)[C@@H](NC(=O)c2cccc(NC=O)c2O)C(=O)OC(C)C1OC(=O)CC(C)C (stereo not given in full) | -195%[inhibitor]
O=C(Oc1ccccc1)N1CCC2(CC1)CN(C(c1ccccc1)c1ccccc1)C2 | ?
CCCN1CCc2cc(O)cc3c2C1Cc1ccc(O)c(O)c1-3 (stereo not given) | -6%
C[C@]12CCC(=O)C=C1CC[C@@H]1[C@@H]2CC[C@@]2(C)[C@H]1CC[C@]2(C)O | -7%&21%
Ic1ccccc1CNC1C2CCN(CC2)C1C(c1ccccc1)c1ccccc1 (stereo not given) | -2%
Oc1ccc2c3c1O[C@H]1[C@@H](O)CC[C@@]4(O)[C@@H](C2)N(CC2CCC2)CC[C@]314 | -40%[inhibitor]
CCOC(=O)[C@]12Cc3c(cc(OC)c(OC)c3OC)[C@H]1N(Cc1ccccc1)C(=O)c1ccccc12 | -5%
NC1=NC(=O)N2CC12 (stereo not given) | 6%
CN1CCc2cc(O)cc3c2C1Cc1ccc(O)c(O)c1-3 (stereo not given) | -19%
COC(=O)c1cc2c(cn1)[nH]c1ccccc12 | -2%
C[C@H](N)[C@H](O)c1ccc(O)c(O)c1 | ?
O=C1NCN(c2ccccc2)C12CCN(C[C@H]1COc3ccccc3O1)CC2 | 6%
CCCN(CCC)C1CCc2cccc(O)c2C1 (stereo not given) | -5%&-12%
C=C1C([C@@H](O)C[C@H](C)C2O[C@@]3(CCCCO3)CC[C@H]2C)OC2CC[C@@]3(CC[C@@H](/C=C/[C@@H](C)C4CC(C)=C[C@]5(O4)O[C@H](C[C@@](C)(O)C(=O)O)CCC5O)O3)OC2[C@@H]1O (stereo not given in full) | -18%
COc1ccc(C(=O)O)cc1OC | -21%
CC1(C)C(C(Cl)Cl)C2(Cl)C(Cl)C(Cl)C1(Cl)C2(Cl)Cl (stereo not given) | 11%
CN1C(=O)[C@@H](NC(=O)c2cc3ccccc3[nH]2)N=C(c2ccccc2)c2ccccc21 | ?
CCCC(C)(COC(N)=O)COC(=O)NC1CC1 (stereo not given) | -17%
CC(=O)OC1CCC23C(=O)OC45CCC(C6=CC(=O)OC6)C4(C)CCC2C5CCC3(O)C1 (stereo not given) | 0%
O=C1CCC[C@H]2[C@H]3CCCN4CCCC(=CN12)[C@@H]34 | 6%

# 3 of the compounds above, with each value named.
> O=C(Oc1ccccc1)N1CCC2(CC1)CN(C(c1ccccc1)c1ccccc1)C2
- EPAC1 agonist: ?

> CCCN1CCc2cc(O)cc3c2C1Cc1ccc(O)c(O)c1-3 (stereo not given)
- EPAC1 agonist: -6%

> C[C@]12CCC(=O)C=C1CC[C@@H]1[C@@H]2CC[C@@]2(C)[C@H]1CC[C@]2(C)O
- EPAC1 agonist: -7%&21%

# Additional entries.
Structure | EPAC1 agonist
C[C@]12CC[C@H]3[C@@H](CCC4=C(Cl)C(=O)CC[C@@]43C)[C@@H]1CC[C@@H]2O | -12%
O=C1CCCC2[C@@H]3CCCN4CCC[C@@H](CN12)C34 (stereo not given in full) | 4%
N#Cc1ccc(CN2CC3(CCNCC3)C2)cc1 | 21%
S=C(NC1CCCCC1)N1CCC(c2cnc[nH]2)CC1 | -1%&10%
c1ccc(N2CCC3(CCNCC3)CC2)nc1 | -47%[inhibitor]
O=c1ccc2[nH]cc(C3=CCNCC3)c2[nH]1 | -15%
O=CN1CCCCC1C1CC[C@H]2CCCCN2C1 (stereo not given in full) | -15%
CC(=O)c1c(O)c(C)c(O)c(Cc2c(O)c3c(c(C(=O)/C=C/c4ccccc4)c2O)OC(C)(C)C=C3)c1O | -1%&8%&-8%&2%
C#C[C@]1(O)CC[C@H]2[C@@H]3CCC4=CC(=O)CCC4=C3C=C[C@@]21CC | -9%
CCCCC/C=C\C/C=C\C/C=C\C/C=C\CCCCCC(=O)NCCO | -12%
CC1OC(O[C@@H]2C(O)CC(O[C@@H]3C(O)C[C@@H](OC4CC[C@]5(C)[C@H](CC[C@H]6[C@@H]5CC[C@]5(C)C(C7=CC(=O)OC7)C(O)C[C@@]65O)C4)OC3C)OC2C)CC(O)C1O (stereo not given in full) | -3%
C=CCN1C[C@H](C)N([C@H](c2ccc(C(=O)N(CC)CC)cc2)c2cccc(OC)c2)C[C@H]1C | -4%&14%
OC[C@@H](O)[C@H]1O[C@@H]2O[C@H](C(Cl)(Cl)Cl)O[C@@H]2[C@H]1O | -1%
Fc1ccc(C(OCCN2CCN(C/C=C/c3ccccc3)CC2)c2ccc(F)cc2)cc1 | ?
C=CC[C@]1(O)CC[C@H]2[C@@H]3CCC4=CCCC[C@@H]4[C@H]3CC[C@@]21C | -1%
c1ccc(CCN2CCCC2)cc1 | 1%
OC[C@@H]1CCCN2CCCC[C@@H]12 | 1%
C[C@@H]1O[C@H](O[C@@H]2C[C@@H](O)[C@]3(CO)[C@H]4[C@H](O)C[C@]5(C)[C@@H](C6=CC(=O)OC6)CC[C@@]5(O)[C@@H]4CC[C@]3(O)C2)[C@@H](O)[C@H](O)[C@H]1O | -6%
CN1C[C@H](CNC(=O)OCc2ccccc2)C[C@H]2c3cccc4c3c(cn4C)C[C@@H]21 | 11%
COc1ccc(C(CN(C)C)C2(O)CCCCC2)cc1 (stereo not given) | 3%&13%
CC(=O)N1CC2CC(C1)c1cccc(=O)n1C2 (stereo not given) | -21%
COc1cc2c(c(OC)c1OC)-c1ccc(O)c(=O)cc1C(NC(C)=O)CC2 (stereo not given) | 26%
CC(N)c1cccc(Cl)c1Cl (stereo not given) | 5%
Cc1noc(C)c1C(=O)N1CCC2(CCCN(CC(C)C)C2)CC1 | 18%
C#CCOC(=O)C1=CCCN(C)C1 | 2%&-6%&-15%
CC(C)[C@]1(O)[C@@H](OC(=O)c2ccc[nH]2)[C@@]2(O)[C@@]3(C)C[C@]4(O)O[C@@]5([C@H](O)[C@@H](C)CC[C@]35O)[C@@]2(O)C41C | -5%
COc1cccc(-c2ccc(O)c(CNC3CN4CCC3CC4)c2)n1 (stereo not given) | -6%
